From PubChem BioAssay
Mtb H37Rv – Mycobacterium tuberculosis H37Rv growth inhibition, cell based, confirmatory dose response (AID 1949); most inactive calls were filed without a number and no value below 0 was filed; one-dose inhibition, % at 10 µg/mL; IC50 in µg/mL for titrated hits; M. tuberculosis H37Rv growth inhibition; actives 1.6% (n = 100,000);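 active = confirmed in a dose series; inconclusive = about 50% or more but not retested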;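 note: bacteria grown 7 days with compound before Alamar blue readout; 0% = untreated bacteria and 100% = reference antibiotic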
An asterisk follows results filed as active; i = inactive; ? = inconclusive.

SMILES	Mtb H37Rv
COc1ccccc1OCCCOc1ccc(C)cc1OC	i
COc1ccc(-c2nn(-c3ccccc3)cc2C(=O)Nn2cnnc2)cc1OC	i
Cc1ccc(S(=O)(=O)N(C)CC(=O)N2CCc3ccccc3C2)cc1	i
CCn1c(SCC(=O)Nc2ccc(C)c(Cl)c2)nnc1-c1ccc(Cl)c(Cl)c1	i
O=C(Nc1ccc(Cl)cc1)c1nsc(Cl)c1Cl	i
COC(=O)Cc1cc(=O)[nH]c(/N=C(\N)Nc2ccc(C)cc2)n1	0.4%
COc1ccc(C(=O)Nc2ccc(N3CCN(C(=O)c4ccccc4C)CC3)cc2)cc1	i
CCc1ccc(OC(C)c2nnc(SCC(=O)Nc3nc(-c4ccc(C)cc4)cs3)n2C)cc1 (centres undefined)	i
COc1cccc(C2CC(c3ccccc3C)n3ncnc3N2)c1 (centres undefined)	i
C=CCN1C(=O)NC(=O)C(Cc2ccc(OC)c(OC)c2)C1=O (centres undefined)	i
O=C1/C(=C/c2cn(-c3ccccc3)nc2-c2ccc(Cl)cc2)SC(=S)N1C1CCS(=O)(=O)C1 (centres undefined)	i
CN(C)c1ccc(C2CC(c3ccc(Cl)cc3)=NN2S(=O)(=O)c2ccccc2)cc1 (centres undefined)	i
COC(=O)c1ccccc1-c1cc(C)no1	1.5%
C=CCNCCOCCOc1ccc(C)cc1Br	i
CCN(CC)S(=O)(=O)c1ccc(OC)c(Cl)c1Cl	0.8%
COc1ccc([N+](=O)[O-])cc1C(=O)N1CCN(c2nnc(-c3ccccc3)c3ccccc23)CC1	0.0%
COc1ccccc1CC(=O)O/N=C(\N)c1cccnc1	i
C=C(C)COc1ccc2c(C)c(CCC(=O)OCC)c(=O)oc2c1	i
CCOC(=O)NC(=S)NCc1ccccc1	0.4%
CC(=O)C1=C(O)C(=O)N(CCN(C)C)C1c1ccccc1F (centres undefined)	0.4%
CCOC(=O)c1c(NC(=S)Nc2ccc(CN3CCCCC3)cc2)sc2c1CCCC2	3.5%
O=C(CCCC(=O)OCC(F)(F)C(F)F)Nc1nccs1	0.5%
Cc1cccc(CC2S/C(=N\N=C\c3cccs3)NC2=O)c1 (centres undefined)	i
COc1ccc(CNC(=S)NCc2ccc(OC)cc2)cc1	i
CCc1cc(C(=O)OC)c(NC(=S)Nc2ccc(N(C)C(C)=O)cc2)s1	i
CN(C)CCNC(=O)C(=O)Nc1cccc(C(F)(F)F)c1	i
COc1ccc(-c2cc(C(F)(F)F)c(C#N)c(SCCS(=O)(=O)c3ccc(C)cc3)n2)cc1	5.9%
Cn1c(-c2ccccc2)c(CCO)c2ccccc21	i
CC1=NCCN1S(=O)(=O)c1ccc(I)cc1	i
NC(=O)c1ccccc1NC(=S)NC(=O)c1ccc2ccccc2c1	i
O=C(Nc1cccc(C(F)(F)F)c1)c1sc2cccc(F)c2c1Cl	i
C=CCNC(=O)c1ccccc1NC(=O)COc1ccccc1	1.3%
COc1ccc(-c2cc(=O)oc3cc(OCC(C)=O)ccc23)cc1	12.7%
O=C(NCCN1CCOCC1)c1sc2cc(F)ccc2c1Cl	i
CCc1ccc(NC(=O)c2cccc(OCc3ccccc3)c2)cc1	i
CCN(CC)c1ccc(NC(=O)Nc2cccc(Cl)c2)cc1	i
Cc1ccc(CNC(=O)c2ccc(F)cc2)cc1	i
CCN(CC)C(=O)Cc1c(OC)ccc2cc(Br)ccc12	i
O=C1CC(C(=O)Nc2cccc3ccccc23)C2(CCCCC2)O1 (centres undefined)	i
COc1ccc(S(=O)(=O)N(CC(=O)N2CCC(C(N)=O)CC2)c2cccc(Cl)c2)cc1	5.3%
COc1nnc(-c2ccc(N3CCOCC3)c(NC(=O)COc3ccc(C)cc3)c2)c2ccccc12	i
COc1cccc(NC(=S)NCCCN(C)C)c1	i
CN(C)S(=O)(=O)c1ccc(Oc2ccccc2)cc1	6.5%
COc1ccc(OC)c(C(C)NC(=O)c2ccc(F)cc2)c1 (centres undefined)	0.6%
Cc1cccc(/C=N\Nc2nnc(-c3ccccc3)c(=O)[nH]2)c1	48.8%
COc1ccc(CCCc2nnc(SCC(=O)Nc3nc(-c4ccccc4)cs3)o2)cc1	4.3%
CC(=O)Oc1cc(C)c2c(=O)c(-c3ccccc3)c(C(F)(F)F)oc2c1	i
Cc1ccc(SCC(=O)Nc2cc(C)ccc2O)cc1	i
O=C(CN1C(=O)c2cccc3cccc1c23)Nc1ccc(F)c(Cl)c1	1.1%
COc1ccc(Cl)cc1C(=O)N(Cc1nc(-c2ccc(C)cc2)no1)C(C)C	3.6%
O=C(CN(Cc1ccc(F)cc1)S(=O)(=O)c1ccccc1)Nc1ccc(Cl)c(Cl)c1	3.0%
CCCCNC(=O)c1cc2c(n(-c3ccccc3)c1=O)CC(C)(C)CC2=O	i
COc1ccc(C2c3cc(OC)c(OC)cc3CCN2S(C)(=O)=O)cc1OC (centres undefined)	i
O=C(NNC(=S)NCc1ccco1)c1ccc(-n2cccc2)cc1	i
COC(=O)C1=C(C)N=c2s/c(=C/c3ccc([N+](=O)[O-])cc3)c(=O)n2C1c1cccs1 (centres undefined)	10.5%
CSc1cccc(NC(=O)CN(C)S(=O)(=O)c2ccc(C)cc2)c1	i

(next part)
SMILES	Mtb H37Rv
COc1ccc(OC)c(S(=O)(=O)Oc2cc(C)cc(C)c2)c1	i
Fc1ccccc1Cn1cc(Br)c(NC(=S)Nc2cccc(Cl)c2Cl)n1	i
Clc1cc(Br)ccc1OCCn1ccnc1	?
C=CCSc1nc2ccc(Br)cc2c(=O)n1-c1ccccc1	i
COCCCN(CCCN)Cc1ccco1	i
O=C1CCCC2=C1C(c1ccc(F)cc1)Nc1ccccc1N2 (centres undefined)	i
O=C(NCc1ccco1)N(c1ccccc1)c1ccccc1	i
COc1ccc(S(=O)(=O)N(C)c2ccc(C(=O)N3CCOCC3)cc2)cc1	i
COC(=O)Cc1ccc(NC(=O)c2ccc(NC(=O)c3ccco3)cc2)cc1	i
CC(=O)NS(=O)(=O)c1ccc(NC(=O)C(C)Oc2cccc(Cl)c2)cc1 (centres undefined)	i
CCN(c1ccccc1)S(=O)(=O)c1ccc(NC(=O)C2CCCCC2)cc1	i
COc1cc(C(=S)N2CCCCC2)ccc1OCc1c(F)cccc1Cl	i
CS(=O)(=O)N1CCC(C(=O)NC2CCCC2)CC1	i
COc1cc(SC)ccc1C(=O)N1CCc2cc(Br)ccc21	i
CC(C)c1nnc(N2C(=O)C(O)=C(C(=O)c3ccco3)C2c2cccc(Br)c2)s1 (centres undefined)	i
O=S(=O)(c1ccc(Oc2ccccc2Cl)cc1)N1CCOCC1	1.9%
O=C1C2C3c4ccccc4C([N+](=O)[O-])(c4ccccc43)C2C(=O)N1c1nc2ccccc2s1 (centres undefined)	i
O=C(c1ccccc1)c1cccc(NC(=O)c2ccc(Br)o2)c1	8.4%
C=CCn1c(SCC(N)=O)nc2scc(-c3ccc(Cl)cc3)c2c1=O	i
Cc1ccc(-c2csc(NC(=O)CSc3ccc(Br)cc3)n2)cc1	i
CCSc1nnc(NC(=O)C2C3C=CC(C3)C2C(=O)O)s1 (centres undefined)	i
COCc1nnc(NC(=O)Cc2ccccc2[N+](=O)[O-])s1	1.4%
CC(=O)N(C)c1ccc(NC(=S)NC(=O)c2ccccc2[N+](=O)[O-])cc1	i
O=C(CC(c1ccccc1)c1cc(Br)ccc1O)N1CCCC1 (centres undefined)	i
O=c1c2c3c(sc2nnn1Cc1ccc(Br)cc1)CCCC3	i
C=CCc1cccc2cc(C(=O)Nc3ccc(C)cc3Br)c(=O)oc12	i
CCOC(=O)C1CCCN(C(=O)c2sc3cc(Cl)ccc3c2Cl)C1 (centres undefined)	i
COc1cc(OC)cc(C(=O)Nc2nnc(Cc3ccc(Cl)cc3)s2)c1	i
CCCOc1ccccc1N/C(=N\c1nc(C)cc(C)n1)NC(=O)COc1ccc(OC)cc1	i
CC(=O)Oc1ccc2c(=O)c(-c3ccccc3)c(C)oc2c1	i
COC(=O)c1cn(-c2ccccc2)nc1-c1ccc(C)c(C)c1	5.2%
C=C(C)COc1ccc2oc(C)c(C(=O)O)c2c1	22.9%
CC1=C(C(=O)N2CCCCC2)C(c2cccc(O)c2)C2=C(CCCC2=O)N1 (centres undefined)	i
COc1ccc(S(=O)(=O)N(C)CC(=O)Nc2cccc(OC)c2)cc1	i
Nc1cc(N)nc(SCc2ccccc2)n1	i
COc1ccc(-c2c3c(nc4sc(C(N)=O)c(N)c24)CCCC3)cc1	i
COc1ccc(Cl)cc1C(=O)NC(=S)Nc1cc(C(=O)O)ccc1Cl	i
COc1ccccc1C(O)C(F)(F)F (centres undefined)	1.2%
NS(=O)(=O)c1ccc(NC(=O)c2cccc(I)c2)cc1	i
CCOc1ccc(N2C(=O)CC(SC(=NC)Nc3ccc(Cl)cc3)C2=O)cc1 (centres undefined)	i
O=S1(=O)N=C(N(CCO)c2ccc(Cl)cc2)c2ccccc21	i
S=c1nc(SCCOc2ccccc2)[nH]c2ccccc12	i
CCOC(=O)N1CCN(C(=O)CN(C)S(=O)(=O)c2ccc3ccccc3c2)CC1	i
O=C(Cc1ccccc1)Nc1nnc(-c2cccs2)s1	5.9%
CCOC(=O)c1cnc2c(ccc3ccccc32)c1NCCCO	4.8%
COc1cc(C)ccc1OCCCOc1ccccc1C(C)C	i
Cc1cc(OCC(O)CN2CCc3ccccc3C2)ccc1Cl (centres undefined)	26.4%
CC(C)(C)C(=O)Nc1ccccc1C(=O)Nc1cccnc1	8.0%

3 entries from above, set out differently:
SMILES: CCOC(=O)N1CCN(C(=O)CN(C)S(=O)(=O)c2ccc3ccccc3c2)CC1
  Mtb H37Rv: i
SMILES: S=c1nc(SCCOc2ccccc2)[nH]c2ccccc12
  Mtb H37Rv: i
SMILES: Cc1cc(OCC(O)CN2CCc3ccccc3C2)ccc1Cl (centres undefined)
  Mtb H37Rv: 26.4%

Following part.
SMILES	Mtb H37Rv
CCCn1cc(NC(=O)c2cc3n(n2)C(C(F)(F)F)CC(c2ccccc2)N3)cn1 (centres undefined)	i
COc1ccc(Cl)c(N2C(=O)CC(Sc3ccccc3C(=O)O)C2=O)c1 (centres undefined)	i
Cc1cccc(NC(=O)C(=O)NCCc2ccccc2F)c1C	i
COc1ccccc1/C=C/c1nn2c(-c3ccccc3Cl)nnc2s1	19.6%
CCOC(=O)c1c(NC(=O)c2cccs2)sc(C(=O)OC)c1C	i
O=C1CC(NCCCc2ccccc2)C(=O)N1c1ccc(Br)cc1 (centres undefined)	i
Cc1cc(=O)oc2cc(NC(=S)NCc3ccc(C(=O)O)cc3)ccc12	i
Fc1cc(Cl)ccc1NC(=S)N1CCN(c2ccccc2)CC1	i
Cc1ccc(OCCN2CCCCC2)c(Br)c1	i
COc1ccc(OCCCC(=O)Nc2ccc3c(c2)OCO3)cc1	i
COc1ccc(Cl)cc1NC(=O)CN1C(=O)COc2ccc(Cl)cc21	i
O=C(COc1ccc2c(=O)c(-c3ccccc3)coc2c1)NCc1ccc(Cl)cc1	i
Cc1cc(C(C)(C)C)cc(S(=O)(=O)Nc2ccc(C(=O)N3CCC(C)CC3)cc2)c1C	45.5%
O=C(Nc1ccc(F)c(Cl)c1)c1ccc([N+](=O)[O-])o1	<0.1µg/mL*
COc1ccc(Cl)cc1NC(=O)Cn1c(=O)oc2ccccc21	i
COc1ccc(NC(=S)N2CCN(c3cccc(C(F)(F)F)c3)CC2)cc1OC	i
Cc1ccc(OCCOCCn2ccnc2)c([N+](=O)[O-])c1	i
COc1ccc(N2CCN(S(=O)(=O)c3ccc(Cl)s3)CC2)cc1	6.2%
CCOc1cc(/C=C\c2[nH]c(=O)[nH]c(=O)c2[N+](=O)[O-])ccc1OCc1ccccc1C#N	i
COc1cccc2cc(C(=O)N3CCN(c4ccc(C)cc4C)CC3)c(=O)oc12	i
COc1ccc(-c2cc(C(F)(F)F)c(C#N)c(SCC(=O)Nc3ccccc3F)n2)cc1	4.0%
Cc1ccc(C(=O)NC(=S)Nc2cccc3ncccc23)c(Cl)c1	1.4%
O=C(Nc1ccc(N2CCOCC2)c(Cl)c1)c1sc2cc(Cl)ccc2c1Cl	i
CCN(CC)c1ccc([N+](=O)[O-])cc1C(=O)Nc1ccc(C)cc1	i
CCC(C)N(C(=O)c1cc(Cl)ccc1OC)C(C)CC (centres undefined)	1.2%
CC(C)n1c(SCCC(=O)O)nc2ccccc21	i
COC(=O)c1ccc(C2C3=C(CCCC3=O)Nc3[nH]n(-c4ccccc4)c(=O)c32)cc1 (centres undefined)	1.8%
O=C(CCc1ccccc1)Oc1ccc(Cl)cc1	i
O=C(CCCc1ccccc1)Nc1scc2c(=O)oc3ccccc3c12	i
O=[N+]([O-])c1nn(Cc2c(F)cccc2Cl)cc1Cl	i
CNC(=O)C12CC3CC(C1)CC(c1ccc(C)cc1)(C3)C2	i
CCOc1ccccc1NC(=O)C(=O)NCc1ccco1	i
Cc1ccc(NC(=O)CSc2nnc(-c3ccncc3)n2-c2ccc(F)cc2)cc1Cl	i

In the list so far, these contain a cyano group:
SMILES	Mtb H37Rv
COc1ccc(-c2cc(C(F)(F)F)c(C#N)c(SCCS(=O)(=O)c3ccc(C)cc3)n2)cc1	5.9%
CCOc1cc(/C=C\c2[nH]c(=O)[nH]c(=O)c2[N+](=O)[O-])ccc1OCc1ccccc1C#N	i
COc1ccc(-c2cc(C(F)(F)F)c(C#N)c(SCC(=O)Nc3ccccc3F)n2)cc1	4.0%

This is a subset; the hit share may differ from the screen's.
